# 2A Renilla: FMDV 2A StopGo reporter, Renilla signal | HEK cells with a luciferase reporter of 2A StopGo recoding | Potency, µM (top dose mostly 57.5 µM), for inactives: at the top dose signal change, negative = less light | actives 0.32% (n = 120,000); active means well fitted falling curve with a large enough effect; inconclusive means small, poorly fitted or top-dose-only effect; inactive means no such curve, though single readings can be large or run the other way; also: nearly all actives have a fitted effect of over 55% in size; overnight with compound
# 2A firefly: lowers the firefly signal of an FMDV 2A StopGo reporter. HEK cells with a luciferase reporter of 2A StopGo recoding. Potency, µM (titrated, usually from 57.5 µM), for inactives: top-dose signal change, negative = less light. actives 0.23% (n = 120,000); active = well fitted falling curve with a large enough effect; inconclusive = small, poorly fitted or top-dose-only effect; inactive = no such curve, though single readings can be large or run the other way; also: nearly all actives have a fitted effect of over 60% in size; overnight with compound
# * hit, by the source's call; ? = inconclusive; [ ] = dose if it differs, or a comment. % is scaled to controls: 0 for no effect and ±100 for the full control effect; potency is read from the fitted curve at half-maximal effect.
SMILES,2A Renilla,2A firefly
CC(CCc1ccccc1)NCC1CCCO1 (stereo not given),5%,-2%
COc1ccc(OC)c(CCNC(=O)c2ccc3[nH]c(C)c(C)c3c2)c1,-2%,20%
COc1cccc(N2CCN(c3c4c(nc5nncn35)CCC4)CC2)c1,?,-20%
CCn1nc(C)c(CNC(=O)Nc2ccc(F)c(Cl)c2)c1C,19%,98%[activator]
O=C(Nc1ccc(OCC(F)(F)F)cc1)c1n[nH]c(=O)c2ccccc12,13%,86%[activator]
CCc1cccc(C)c1NC(=O)c1cccc(C(=O)Nc2c(C)cccc2CC)c1,7%,-3%
CN(CCC#N)C(=O)CSc1ncc(-c2ccccc2)o1,3%,159%[activator]
Cc1ccc(C)n1-c1c(C(=O)NCC(C)c2ccccc2)sc2ncccc12 (stereo not given),16%,-4%
Cc1cc(C)cc(CC(CC(=O)O)C(=O)O)c1 (stereo not given),-1%,-3%
COc1ccccc1C(=O)Nc1ccc(OCc2cc(=O)n3ccc(C)cc3n2)cc1,-10%,-22%
CS(=O)(=O)N1CCCc2cc(C(=O)CSc3nnc(C4CC4)n3Cc3ccccc3)ccc21,-9%,?
CC(C(=O)N1CCNC1=O)N(C)Cc1ccc(Cl)c(Cl)c1 (stereo not given),-6%,-9%
CCOc1ccc(CNC(=O)Cn2nc(C)c3sc4ccccc4c3c2=O)cc1,-3%,-1%
O=C(NC1CCCCC1)c1ccc(Cn2c(SCc3cccc(F)c3)nc3cccnc32)cc1,-26%,?
COc1ccc(-c2coc3cc(OCC(=O)Nc4ccccc4Cl)ccc3c2=O)cc1,-6%,51%[activator]
Cc1c(-n2nnnc2SCC2CCCCC2)c(=O)n(-c2ccccc2)n1C,37%[activator],11%
CCc1ccc(C(NC(=O)Cn2nc(C)c3ccccc3c2=O)C(C)C)cc1 (stereo not given),-5%,1%
COC(=O)CNC(=O)c1ccc(C(=O)c2ccccc2)cc1,-9%[1.06 µM],8%
COc1ccc(NC(=O)C2CCN(C(=O)c3sc4nc[nH]c(=O)c4c3C)CC2)c(OC)c1,-1%,?
NC(=O)CN1CCC(NC(=O)c2ccc(Oc3ccc(F)cc3)cc2)CC1,-9%,-12%
CCOC(=O)c1scc(-c2ccccc2)c1S(=O)(=O)Nc1ccccc1OC,12%,-12%
CCC[N+](CCC)(CC[O-])Cc1ccccc1,8%,2%
CC(=O)c1ccc(NC(=O)Cn2c(=O)nc(-c3ccccc3)c3cc(Cl)ccc32)cc1,12%,51%[activator]
O=C(CCC(=O)N1CCC(c2noc3ccc(F)cc23)CC1)N1CCSCC1,-7%,10%
Cc1ccc(-n2c(SCC(=O)N3CCCC3=O)nc3ccccc3c2=O)nc1,-7%,82%[activator]
# (listing goes on)
SMILES,2A Renilla,2A firefly
CCN(CC1CCCO1)C(=O)/C=C/c1ccc(C#N)cc1 (stereo not given),1%,9%
CCN(CC)S(=O)(=O)c1ccc(C)c(NC(=O)Cc2ccccc2F)c1,104%[activator],8%
COC(=O)c1c(Oc2ccc(OC)cc2)nnc(-c2ccccc2)c1-c1ccccc1,-8%,-8%
Cc1cc(NC(=O)Cn2ccn3nc(-c4ccc(Cl)cc4)cc3c2=O)ccc1Br,-1%,4%
O=C(N/N=C/C1CC=CCC1)C1CC1c1ccccc1 (stereo not given),-5%,0%
CC(C)[C@H](NC(=O)CCn1ccc2ccc(F)cc21)C(=O)O,3%,17%
COC(=O)c1ccc(CCNC(=O)c2cccc(OC)c2)cc1,-1%,0%
COc1ccc(-c2nc3ccccc3o2)cc1NC(=O)c1ccc(-c2ccc(Br)cc2)o1,-9%,11%
O=C(NCc1ccccc1)N1CCc2sccc2C1,10%,59%[activator]
Cc1cc(C(=O)NC2CCN(Cc3ccccc3)CC2)c2c(C)nn(-c3ccccc3)c2n1,-4%,-6%
COc1cc(C(=O)Nc2nnc(C(C)C)s2)cc(Cl)c1OCC(C)C,-3%,-5%
CCOC(=O)c1cc(S(=O)(=O)Nc2ccc(CC)cc2)[nH]n1,172%[activator],1%
CCC(C)(C)C1CCC(NC(=O)C(=O)Nc2ccccc2F)CC1 (stereo not given),3%,119%[activator]
COc1cccc(C2CC(=O)Nc3cc4c(cc32)OCCO4)c1OC (stereo not given),54%[activator],0%
Cc1cc(-n2c(C)cc(-c3csc(NC4CC4)n3)c2C)no1,-13%,98%[activator]
Cc1cc(C)c(C(=O)Cn2nc(C(=O)O)c3ccccc3c2=O)cc1C,1%,33%[activator]
Cc1ccccc1OCCCCn1c(CCNC(=O)C(C)(C)C)nc2ccccc21,12%,-11%
COc1ccccc1NC(=O)COC(=O)c1cc(=O)c2ccccc2o1,-13%,-10%
c1ccc2nc(N3CCNCC3)ccc2c1,0%,-8%[11.5 µM]
CN(CCCc1[nH]nc(N)c1C#N)c1nc(-c2cccnc2)nc2ccccc12,163%[activator],65%[activator]
Fc1ccc(Sc2cc(-c3ccccc3)c3ccccc3n2)cc1,-10%,10%
COC(=O)c1ccccc1-c1ccc(/C=C(/C#N)c2nc3ccc(C)cc3[nH]2)o1,6%,52%[activator]
CCCCCCn1nc(C(=O)NCc2ccc(C(=O)OC)cc2)c2ccccc2c1=O,1%,9%
CCCCN1C(=O)CN(C2CCCCC2)C(=O)C1c1ccc(OC(C)C)c(OC)c1 (stereo not given),-1%,-9%
CCCOC(=O)COc1ccc2c(=O)c(Oc3ccc(C(C)(C)C)cc3)coc2c1,1%,-1%
# Next records follow:
SMILES,2A Renilla,2A firefly
CN(Cc1ccco1)S(=O)(=O)c1nnc(NC(=O)c2cccc(Cl)c2)s1,100%[activator],95%[activator]
CCn1c(SCC(=O)NC(C)c2ccc3c(c2)CCCC3)nnc1C1CC1 (stereo not given),-15%,-13%
CCCCOc1ccc(CNC(=O)CN2CCSc3ccccc32)cc1,10%,23%
Cc1ccc2nc(-c3ccc(NC(=O)COc4ccc(Br)cc4Br)cc3)sc2c1,-11%,45%[activator]
CCOC(=O)c1ccc(NC(=O)c2nc(S(=O)(=O)Cc3ccccc3)ncc2Cl)cc1,-4%,15%
Cc1cc(NC(=O)CN2CCN(C(=O)c3c(F)cccc3F)CC2)no1,-9%,0%
CC(C)(C)C(=O)Nc1cccc(C(=O)OCc2cc(=O)n3nc(C4CC4)sc3n2)c1,3%,-13%
COc1ccc(NC(=O)c2cnn3c2NC(C(=O)O)=CC3c2ccc(F)cc2)cc1 (stereo not given),-1%,7%
CC(Sc1nnc(C2CC2)n1Cc1ccco1)C(=O)Nc1ccnn1C(C)C (stereo not given),-7%,-12%
CNC(=O)CN1CCN(c2nc(-c3ccccc3)c3ccccc3n2)CC1,-7%,-10%
CCc1cccc(NC(=O)Cn2c(=O)n(CCC(=O)NCC3CCCO3)c(=O)c3cc(OC)c(OC)cc32)c1 (stereo not given),-12%,-18%
O=C(c1cc(=O)c2cc(Cl)ccc2o1)N(Cc1ccccc1)C1CCS(=O)(=O)C1 (stereo not given),9%,-13%
CCCN(CCC)S(=O)(=O)NCc1ccnc(N2CCN(c3ccc(F)cc3)CC2)c1,-13%,-29%
COc1cccc(C2CC(=O)Nc3c2c(=O)n(C)c2ncnn32)c1OC (stereo not given),-9%,-15%
Cc1nc2cc(NC(=O)C(C)(C)Oc3ccc(Cl)cc3)ccc2o1,-12%,7%
Cc1ccc(-n2ncc3c(NCCCn4ccnc4)ncnc32)cc1Cl,48%[activator],124%[activator]
O=C(Nc1c(O)c2ccccc2oc1=O)c1ccccc1Cl,-9%,3%
O=C(Oc1ccc(F)cc1)c1nc(SCc2ccccc2F)ncc1Cl,-20%,-16%
Cc1ccc(Cn2nc(C)c(NC(=O)COCc3cc(-c4cccs4)on3)c2C)cc1,?,?
Cc1cccn2cc(COc3cccc(C(=O)O)c3)nc12,64%[activator],?
CCC1CN(C(=O)N2CCC(C(=O)NCc3ccccc3C)CC2)c2ccccc2O1 (stereo not given),17%,-14%
CC1CCCN(S(=O)(=O)c2ccc(N3CCCCS3(=O)=O)cc2)C1 (stereo not given),-8%,3%
Cc1ccccc1C(=O)NC1CCCCC1,2%,0%
Cc1cccc(NC(=O)C(Cc2ccccc2)NS(=O)(=O)c2ccc3c(c2)c(=O)n(C)c(=O)n3C)c1 (stereo not given),25%,?
Cc1cc(C)c2nc(N(Cc3cccnc3)C(=O)Cc3ccccc3)sc2c1,0%,-1%

# Given with tabs: 2 of the compounds above.
SMILES	2A Renilla	2A firefly
COc1ccc(NC(=O)c2cnn3c2NC(C(=O)O)=CC3c2ccc(F)cc2)cc1 (stereo not given)	-1%	7%
COc1cccc(C2CC(=O)Nc3c2c(=O)n(C)c2ncnn32)c1OC (stereo not given)	-9%	-15%

# (next part)
SMILES,2A Renilla,2A firefly
Cc1ccc(C)c(CN2C(=O)c3ccccc3S(=O)(=O)c3ccc(C(=O)N4CCN(c5ccccn5)CC4)cc32)c1,-3%,-19%
Cc1cc(C(=O)COC(=O)Cc2n[nH]c(=O)c3ccccc23)c(C)n1C1CC1,?,-3%
Cc1cccc2c(=O)c(-c3ccccc3)c(NC(=O)c3ccccc3)oc12,-1%,12%
Cc1cc(-c2ccc(S(=O)(=O)Nc3cc(Cl)ccc3C)s2)on1,86%[activator],-27%
Cc1ccc2oc(C(=O)NCCCOCC3CC3)cc(=O)c2c1,11%,12%
O=C(CSc1ncc(-c2ccc(F)cc2)o1)Nc1ccccc1C(F)(F)F,1%,40%[activator]
CCn1nc(C(=O)OCC(=O)Nc2c(Cl)cc(Cl)cc2Cl)c2ccccc2c1=O,4%,8%
CC(=O)Nc1ccc(-c2csc(NCc3ccco3)n2)cc1,17%,48%[activator]
O=C(c1cc2c(s1)-c1ccc(Cl)cc1SC2)N1CCC(Cc2ccccc2)CC1,6%,1%
Cc1ccc(-n2c3nc(=O)[nH]c(=O)c-3cc3c(C)nn(-c4ccccc4)c32)c(C)c1,-1%,-12%
CC(C)(C)OC(=O)N1CCC(c2c(C(=O)NCCN3CCOCC3)cnn2-c2cccc(F)c2)CC1,20%,-20%
CCOc1ccccc1N(C)C(=O)Cn1cnc2onc(-c3ccc(F)cc3)c2c1=O,-14%,-16%
CCc1ccc(Cn2c(CNS(=O)(=O)c3ccc4c(c3)CCCC4)nc3cccnc32)cc1,-52%,-15%

# Filtered by structure: the compounds so far with a Cl atom.
SMILES,2A Renilla,2A firefly
CCn1nc(C)c(CNC(=O)Nc2ccc(F)c(Cl)c2)c1C,19%,98%[activator]
CC(C(=O)N1CCNC1=O)N(C)Cc1ccc(Cl)c(Cl)c1 (stereo not given),-6%,-9%
COc1ccc(-c2coc3cc(OCC(=O)Nc4ccccc4Cl)ccc3c2=O)cc1,-6%,51%[activator]
CC(=O)c1ccc(NC(=O)Cn2c(=O)nc(-c3ccccc3)c3cc(Cl)ccc32)cc1,12%,51%[activator]
Cc1cc(NC(=O)Cn2ccn3nc(-c4ccc(Cl)cc4)cc3c2=O)ccc1Br,-1%,4%
COc1cc(C(=O)Nc2nnc(C(C)C)s2)cc(Cl)c1OCC(C)C,-3%,-5%
CN(Cc1ccco1)S(=O)(=O)c1nnc(NC(=O)c2cccc(Cl)c2)s1,100%[activator],95%[activator]
CCOC(=O)c1ccc(NC(=O)c2nc(S(=O)(=O)Cc3ccccc3)ncc2Cl)cc1,-4%,15%
O=C(c1cc(=O)c2cc(Cl)ccc2o1)N(Cc1ccccc1)C1CCS(=O)(=O)C1 (stereo not given),9%,-13%
Cc1nc2cc(NC(=O)C(C)(C)Oc3ccc(Cl)cc3)ccc2o1,-12%,7%
Cc1ccc(-n2ncc3c(NCCCn4ccnc4)ncnc32)cc1Cl,48%[activator],124%[activator]
O=C(Nc1c(O)c2ccccc2oc1=O)c1ccccc1Cl,-9%,3%
O=C(Oc1ccc(F)cc1)c1nc(SCc2ccccc2F)ncc1Cl,-20%,-16%
Cc1cc(-c2ccc(S(=O)(=O)Nc3cc(Cl)ccc3C)s2)on1,86%[activator],-27%
CCn1nc(C(=O)OCC(=O)Nc2c(Cl)cc(Cl)cc2Cl)c2ccccc2c1=O,4%,8%
O=C(c1cc2c(s1)-c1ccc(Cl)cc1SC2)N1CCC(Cc2ccccc2)CC1,6%,1%

# High-throughput results: PubChem, National Center for Advancing Translational Sciences (NCATS)
